CtBP-E1A blk – qHTS Assay for Inhibitors of the CtBP/E1A Interaction. CtBP / adenovirus E1A interaction (AlphaScreen). AlphaScreen GST-E1A/His-CtBP binding, 1536-well; stronger effect = lower value; control for the full effect not named in the record. activity change, % (no concentration beside the values). hit rate 0.49% among 340,000. AID 651724, 2012; in the data active means activity change below about -65%; inconclusive means about -30% to -65%; inactive means above about -30%; further: on the % scale 0 is the no-effect control and ±100 the full control effect; compound concentration not given in the record
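Protein mix (5X: 125 nM each GST-E1A, His-CtBP) was incubated with pinned compound 2 h at 37 deg C in dark, in 50 mM Tris pH 8.0 buffer with 300 mM NaCl. Glutathione donor and nickel acceptor beads followed; AlphaScreen signal read after 1 h.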
gsp antag – qHTS for Antagonists of gsp, the Etiologic Mutation Responsible for Fibrous Dysplasia/McCune-Albright Syndrome: qHTS; gsp-mutant cells, cAMP HTRF, 30 min; control for the full effect not named in the record; Potency, µM (titrated, usually from 76.9 µM), without a hit: at the top dose activity change, negative = inhibition, actives largely listed as inhibitors; hit rate 0.4% among 340,000; AID 624288, 2012; active = falling curve of any shape with a large fitted effect; inconclusive = falling curve, mostly with a smaller effect; inactive = flat or rising curve; cell line not stated here;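 further: intracellular cAMP measured with PDE inhibitor Ro 20-1724 present during compound exposure; potency means the concentration at half of the fitted maximal effect; on the % scale 0 is the no-effect control and ±100 the full control effect; nearly all actives have a fitted effect of over 65% in size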
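HTRF cAMP measurement after 30 min RT detection following 30 min, 37C compound treatment alongside […] (added as 300 uM solution) in G418-selected cells seeded at 2000/well and grown 16–24 h.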
TRPV1 PAM – HTS Assay for Compounds that Act as Potentiators of the Vanilloid Receptor 1; AID 540277, 2011; Transient receptor potential cation channel subfamily V member 1 (Homo sapiens), Q8NER1; TRPV1-expressing cells, Fluo-8 calcium influx, capsaicin EC20 potentiation; host cell line not named in the record; control for the full effect not named in the record; potentiation, % at 8.33 µM; hit rate 0.02% among 320,000; active means potentiation above 80%; inconclusive means 30% to 80%; inactive means below 30%; further: 0% is about no effect
Target sequence (Q8NER1 whole entry, looked up): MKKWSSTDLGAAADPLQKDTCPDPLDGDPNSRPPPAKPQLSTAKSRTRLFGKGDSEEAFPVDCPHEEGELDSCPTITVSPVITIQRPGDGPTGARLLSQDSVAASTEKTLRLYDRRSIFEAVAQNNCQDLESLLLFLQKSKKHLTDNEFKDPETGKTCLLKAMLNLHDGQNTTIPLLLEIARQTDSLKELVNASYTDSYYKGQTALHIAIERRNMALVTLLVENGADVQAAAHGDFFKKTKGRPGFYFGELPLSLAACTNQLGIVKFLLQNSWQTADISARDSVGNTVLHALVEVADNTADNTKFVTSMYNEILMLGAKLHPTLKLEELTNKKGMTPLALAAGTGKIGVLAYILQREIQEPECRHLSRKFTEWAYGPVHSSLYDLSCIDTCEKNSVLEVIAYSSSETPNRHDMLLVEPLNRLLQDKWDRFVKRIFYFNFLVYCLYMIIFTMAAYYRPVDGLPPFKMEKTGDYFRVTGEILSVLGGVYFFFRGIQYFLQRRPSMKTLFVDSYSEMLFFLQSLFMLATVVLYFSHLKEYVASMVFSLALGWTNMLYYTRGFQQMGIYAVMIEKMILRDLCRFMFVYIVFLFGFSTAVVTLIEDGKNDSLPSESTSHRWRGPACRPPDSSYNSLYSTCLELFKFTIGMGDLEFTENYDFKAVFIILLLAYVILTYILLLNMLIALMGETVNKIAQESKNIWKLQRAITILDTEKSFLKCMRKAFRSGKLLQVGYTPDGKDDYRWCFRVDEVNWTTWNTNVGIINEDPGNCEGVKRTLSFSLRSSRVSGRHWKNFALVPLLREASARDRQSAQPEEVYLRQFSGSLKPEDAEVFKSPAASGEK
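TRPV1-expressing cells were cultured overnight at 35.5C and loaded with Fluo-8 calcium dye for 40 to 90 min at room temperature. After a 10 s baseline, compound was added and calcium influx was read kinetically for 3 min (ex 480/em 520 nm).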
Sfp PPTase inh – qHTS Assay for Inhibitors of Bacillus subtilis Sfp phosphopantetheinyl transferase (PPTase); Biochemical Sfp PPTase activity, qHTS; Potency, µM, for inactives: max response, negative = inhibition, actives largely listed as inhibitors; AID 1490, 2009; hit rate 3.5% among 310,000; 4'-phosphopantetheinyl transferase ffp (Bacillus subtilis), Q9F4F7; active means well fitted inhibition curve with a large enough effect; inconclusive means small, poorly fitted or top-dose-only effect, or another doubt; inactive means no such curve, though single readings can be large or run the other way;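 further: the enzyme is Sfp with the accession as filed and its product quenches rhodamine fluorescence; potency means the concentration at half of the fitted maximal effect; 0% = enzyme reaction without inhibitor and -100% = no enzyme wells; top concentration of the series not given in the record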
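Reaction rates are the 30-min fluorescence difference (ex 525, em 598 nm) in wells containing 15 nM Sfp, 5 uM rhodamine-CoA and 12.5 uM BHQ-2-YbbR at pH 7.6 with 10 mM MgCl2.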
gsp ag – qHTS for Agonist of gsp, the Etiologic Mutation Responsible for Fibrous Dysplasia/McCune-Albright Syndrome: qHTS; gsp mutant cells, cAMP HTRF, 30 min; control for the full effect not named in the record; Potency, µM (series often up to 76.9 µM), inactives show at the top dose activation (cAMP increase), usual class: activators; hit rate 0.13% among 340,000; active = well fitted activation curve with a large enough effect; inconclusive = small, poorly fitted or top-dose-only effect, or another doubt; inactive = no such curve, though single readings can be large or run the other way; cell line not stated here;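 further: phosphodiesterase inhibitor Ro 20-1724 added with compounds to block cAMP breakdown; potency means the concentration at half of the fitted maximal effect; nearly all actives have a fitted effect of over 60% in size; about a fifth of the inactives were tested at one dose only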
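Cells stably selected in G418 were plated at 2000/well, grown 16-24 hr, then given compounds in DMSO with the PDE inhibitor […] (300 uM solution added) for 30 min at 37C; cAMP was read by HTRF.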
Menin-MLL FL inh – qHTS Assay for Inhibitors Targeting the Menin-MLL Interaction in MLL Related Leukemias: Competition With Fluorescein Labeled MLL-derived Peptide | Fluorescence polarization, fluorescein-MLL peptide displacement from menin | FP activity change, % at 61.4 µM | 290,000 tested, under 10 active | AID 1766, 2009; inconclusive = falling polarisation curve, or a change in total fluorescence; inactive = total fluorescence flat and polarisation flat or rising; no compound was filed as active; the % refers to the polarisation; negative = inhibition;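 further: % of control where 0% means no effect; inhibitors lower the polarisation; unlabelled MLL peptide was the positive control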
ClpP mod – qHTS Assay for Activators of ClpP; ATP-dependent Clp protease proteolytic subunit (Bacillus subtilis (strain 168)), P80244; purified B. subtilis ClpP, FRET peptide cleavage, 20 min; Potency, µM (top dose mostly 57.5 µM), for the others: at the top dose activity change, negative = active; hit rate 1.9% among 340,000; active = well fitted falling curve with a large enough effect; inconclusive = small, poorly fitted or top-dose-only effect; inactive = no such curve, though single readings can be large or run the other way; further: potency means the concentration at half of the fitted maximal effect; the source files actives as falling curves though it sought activators and does not explain the sign; nearly all actives have a fitted effect of over 65% in size; many hits overshoot -100%
Target sequence (P80244 whole entry, looked up): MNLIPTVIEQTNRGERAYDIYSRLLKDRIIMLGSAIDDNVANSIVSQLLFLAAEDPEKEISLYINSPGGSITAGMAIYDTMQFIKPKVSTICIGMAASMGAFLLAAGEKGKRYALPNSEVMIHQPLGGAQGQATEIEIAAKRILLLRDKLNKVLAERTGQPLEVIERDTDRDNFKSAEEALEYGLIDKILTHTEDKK
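Purified B. subtilis ClpP, 10 microg/mL final in Tris/HCl pH8 with KCl, BSA, glycerol and Tween-20, cleaved an Abz/nitrotyrosine-quenched decapeptide. Fluorescence (ex 320, em 430) was read at 0 and 20 min at room temperature. Delta was normalized to 5.8 microM ADEP and DMSO/no-enzyme controls.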
Numbers without * were called inactive; u = inconclusive; x = not tested or not shown; & = joins results of further samples; [ ] = another dose, or the depositor's remark.

SMILES | CtBP-E1A blk | gsp antag | TRPV1 PAM | Sfp PPTase inh | gsp ag | Menin-MLL FL inh | ClpP mod
COc1ccc(N(CC(=O)N2CCN(c3ccc(Cl)cc3)CC2)S(=O)(=O)c2c(C)noc2C)cc1 | -2.8 | 3.3% | 15.3 | 11.5% | u | 2.3 | -4.3%
COCCCNC(=O)C1CCN(C(=O)Nc2ccc(Cl)cc2)CC1 | 6.4 | 11.0% | -15.7 | 7.8% | -47.2%[inhibitor] | 0.0 | 6.5%
COc1ccc(/C=N/NC(=O)c2nc(-c3ccccc3)cc(-c3ccccc3)n2)cc1OC | -15.6 | -18.2% | 6.5 | -8.2% | -33.8%[inhibitor] | -1.8 | -17.0%
C=CCN(CC=C)CC(=O)Nc1ccc(S(N)(=O)=O)cc1 | 6.5 | 4.0% | -0.9 | 11.8% | -0.8% | -2.3 | -1.6%
O=C(CCCl)N1CCCC2(CCCCC2)C1 | 1.8 | 14.1% | 3.3 | 13.6% | 11.4% | 1.5 | -0.1%
Cc1ccc(N(CC(=O)NCc2cccs2)S(=O)(=O)c2cccs2)cc1 | 35.6 | 19.1% | 18.2 | 4.0% | -39.4%[inhibitor] | 0.3 | 4.4%
CC1=C(C(=O)N2CCCC(C(=O)c3cccc4ccccc34)C2)OCCO1 (stereo not drawn) | x | 2.4% | 9.3 | 9.0% | -27.2% | 1.4 | 0.5%
CC(=O)c1cccc(NC(=S)NC(=O)C(C)C)c1 | 2.9 | -1.6% | x | 7.3% | u | 4.5 | -1.3%
Cc1ccc(-c2nc3c(c(=O)c4ccccc4n3C)c(=O)n2-c2ccccc2)cc1 | -2.7 | 32.9%[activator] | -21.2 | 6.6% | -21.7% | 13.8 | 1.2%
Cc1cccc(CN2CCN(Cc3cccc(-n4cccn4)c3)CC2CCO)n1 (stereo not drawn) | -8.2 | -1.9% | 7.1 | 15.4% | u | 0.0 | x
O=C(CCCOc1ccccc1)Nc1ccc(Br)cc1 | 8.7 | -1.3% | x | x | -21.0% | x | 1.0%
Cc1ccc(/C=N/n2cnnc2)s1 | 1.2 | 12.8% | 6.3 | 8.3% | -41.0%[inhibitor] | 6.6 | 0.8%
COCCNC(=S)N(CCCN(C)C)Cc1cc2cc3c(cc2[nH]c1=O)OCCO3 | -0.9 | 50.1µM* | 16.2 | -1.4% | u | -5.5 | 3.8%
O=C(COc1ccc(S(=O)(=O)NC2CCCC2)cc1)N1CCCCC1 | -8.3 | 8.3% | 6.8 | -0.2% | 14.0% | x | -1.6%
CCOc1ccc(-n2nnnc2SCC(=O)NNC(=O)c2ccco2)cc1 | 2.7 | 11.6% | 6.3 | -7.7% | -8.0%[15.4 µM] | -2.4 | x
COc1ccc(-c2ccc(SCC(=O)NC3CCCCC3)nn2)cc1OC | 1.8 | -3.1% | -4.5 | -2.9% | -2.2%[15.4 µM] | -0.7 | x
FC(F)(F)c1ccc(C2NCCc3sccc32)cc1 (stereo not drawn) | 0.0 | -0.1% | 28.1 | -25.7% | -4.5% | 2.6 | x
O=C1C=C(NCc2ccccc2)c2ccccc2C1=O | -29.3 | -28.9% | -0.9 | 22.4µM* | u | 1.4 | -5.2%
Cc1nn(C)c(C)c1-c1c(C#N)c(N)nc2c1CCCCCC2 | 5.5 | 7.7% | 10.0 | 17.3% | -27.1% | 1.0 | 1.26µM*
Cc1nn(CCC#N)c(NC(=O)c2ccc(Cl)cc2Cl)c1P(=O)(Nc1ccc([N+](=O)[O-])cc1)N1CCOCC1 (stereo not drawn) | -7.5 | 0.5% | -23.6 | 21.9% | -24.3% | -1.1 | -0.4%
O=C(Nc1ccc(F)cc1)c1cccnc1N1CCOCC1 | -0.9 | 18.6% | 7.1 | 3.8% | 6.0% | 3.1 | -1.0%
CC1=CC2=NC(=O)CC(C)(C(=O)N(CC(=O)NC3CCCC3)Cc3ccc(Cl)cc3)N2C=C1 (stereo not drawn) | -14.3 | x | 16.9 | 0.1% | -14.9%[15.4 µM] | -0.2 | x
COc1cccc(C2N(c3ccccn3)C(=O)C3CCCN32)c1OC (stereo not drawn) | -0.7 | 4.7% | 2.0 | 13.2% | -27.7% | -2.1 | -2.8%
CCCc1c(C(=O)Nc2ccc(C(F)(F)F)cc2)cnn1-c1ccccc1 | 10.1 | -1.2% | -24.9 | 7.2% | -19.2% | 5.7 | 2.6%
Cn1c(=NC(=O)CSCC(=O)N2CCCC2)sc2ccccc21 | 14.1 | 3.3% | 12.4 | 8.5% | 26.7% | 0.2 | -3.7%
COC(=O)c1scc(S(=O)(=O)c2ccccc2)c1N | 3.2 | -4.6% | u | 7.5% | 8.4% | 10.8 | -22.4%
Cc1ccc(OCCN(C)C(=O)C2CCC(=O)N(CCCN3CCCC3=O)C2)cc1 (stereo not drawn) | 3.8 | 10.3% | 5.7 | 15.3% | 10.8% | 0.1 | x
COc1ccc(N(Cc2cc3ccc(C)cc3[nH]c2=O)S(=O)(=O)c2ccccc2)cc1 | -5.3 | -13.4% | -1.9 | 6.4% | -55.9%[inhibitor] | 2.6 | u
O=C(C1CC1)N1CCC(C(O)(c2ccccc2)c2ccccc2)CC1 | 5.2 | -8.5% | 2.1 | 7.9% | -36.0%[inhibitor] | 0.7 | -1.7%
O=C(CN(Cc1ccccc1)C(=O)CCC(=O)Nc1nccs1)NCc1ccco1 | -8.5 | 3.9% | 2.2 | -1.5% | -41.3%[inhibitor] | -3.7 | 1.5%
COc1cccc(/C=N/N2CCN(c3ccncc3S(=O)(=O)N3CCCCC3)CC2)c1 | -22.2 | -13.0% | 3.0 | -15.2% | -58.0%[inhibitor] | 1.8 | -3.2%
CCOc1ccccc1NC(=O)C1C(c2ccccc2)C1(Cl)Cl (stereo not drawn) | -1.4 | x | x | x | -8.3% | x | -0.2%
Cc1ccsc1/C=N/NC(=O)CN1CCN(Cc2ccccc2)CC1 | 0.7 | -5.7% | 0.2 | 7.4% | 8.3% | 3.2 | x
OC(COCc1ccccc1)CN1CCN(Cc2ccc3c(c2)OCO3)CC1 (stereo not drawn) | 1.1 | 2.0% | -14.0 | 25.1% | -3.7%[15.4 µM] | -1.0 | x
Cc1ccc(N=C(NO)c2nonc2N)c(C)c1 | -4.3 | -6.8% | -0.2 | -3.6% | -15.8% | 0.6 | 1.3%
CCOc1ccc(S(=O)(=O)N2CCOCC2)cc1NC(=O)CSCc1ccc(C)cc1 | x | 3.0% | -17.0 | x | 31.9% | x | -1.5%

Continued; it opens with the two that closed the last part.
SMILES | CtBP-E1A blk | gsp antag | TRPV1 PAM | Sfp PPTase inh | gsp ag | Menin-MLL FL inh | ClpP mod
Cc1ccc(N=C(NO)c2nonc2N)c(C)c1 | -4.3 | -6.8% | -0.2 | -3.6% | -15.8% | 0.6 | 1.3%
CCOc1ccc(S(=O)(=O)N2CCOCC2)cc1NC(=O)CSCc1ccc(C)cc1 | x | 3.0% | -17.0 | x | 31.9% | x | -1.5%
C=C(C)COc1ccc2c(C)c(CC(=O)N3C[C@H]4C[C@@H](C3)c3cccc(=O)n3C4)c(=O)oc2c1 | 2.2 | -21.4% | 8.1 | 27.1% | x | -0.1 | 4.2%
CCOc1ccc(N(CC(=O)NC(C)C)C(=O)CCC(=O)Nc2ccccn2)cc1 | 0.0 | -14.5% | 0.0 | 2.8% | -11.3% | -2.7 | 1.0%
CC#CCN1c2ccccc2[C@]23C[C@@H](C(=O)OC)N(C(C)=O)C2=NC(C(=O)OC)=C(C(=O)OC)[C@H]13 | 2.7 | -10.1% | 26.9 | 18.9%&9.8% | x | -2.9[11.7 µM] | 2.1%
CN(C)S(=O)(=O)c1cccc(NC(=O)COC(=O)c2ccc3ccccc3n2)c1 | 0.4 | -0.4% | x | x | -28.0% | x | -11.8%
O=C(Nc1ccccc1)N(CCc1ccncc1)C1CCCCC1 | -8.0 | 5.9% | x | x | u | x | -10.7%
CC(C)Sc1nc2c(c(=O)[nH]c(=O)n2C)n1CCc1ccccc1 | -0.5 | -3.0% | 3.8 | -9.4% | 8.0% | 2.4 | 17.8µM*
COc1ccc(OCC(=O)NNC(=O)Cn2c(=O)cnc3ccccc32)cc1 | 2.4 | 16.5% | 24.0 | x | -16.9% | x | 1.7%
COc1ccc(S(=O)(=O)N2CCCC2CNC(=O)C(=O)NCCc2ccccc2)cc1 (stereo not drawn) | 5.7 | -0.3% | -25.7 | x | 3.0% | x | -1.8%
Cc1noc(C)c1COc1ccc(C(=O)OCC(=O)Nc2ccc(C(=O)N(C)C)cc2)cc1 | 0.5 | 4.2% | u | x | 3.8%[15.4 µM] | x | -1.7%
COC(=O)c1sccc1-c1ccc(/C=N/OC(=O)c2cccs2)o1 | 6.8 | -11.4% | 6.1 | -2.2% | -0.9%[15.4 µM] | -0.8 | x
O=C(CSc1nnc(Cc2ccccc2)n1Cc1ccco1)NC1CCCC1 | -1.6 | -2.7% | -21.5 | u | -4.8% | 2.7 | -0.7%
Cc1ccc(C)c(N2CCN(C(=O)CCc3nc(-c4ccc(Cl)cc4)no3)CC2)c1 | 8.0 | -7.0% | x | x | x | x | -1.5%
CCCNC(=O)C1CN(S(=O)(=O)c2ccc(C)cc2)c2ccccc2O1 (stereo not drawn) | 5.7 | 7.9% | -15.7 | 22.7% | -2.1%[15.4 µM] | -0.7 | x
COc1cccc(CN(C)C(=O)Nc2cccc(C(F)(F)F)c2)c1OC | 2.1 | 4.5% | -18.6 | 11.1% | 3.2%[15.4 µM] | 5.2 | -2.0%

Screening results (PubChem BioAssay)
